Screening data (PubChem)
NPR1 antag: blocks ANP-stimulated signaling of human Npr1 receptor; P16066; AID 1347048; actives 1.6% (n = 76,000); Potency, µM (series often up to 46.3 µM), for inactives: at the top dose activity change, negative = inhibition, actives largely listed as inhibitors; HEK293 hNpr1 GloSensor cGMP, ANP-stimulated luminescence; active = well fitted inhibition curve with a large enough effect; inconclusive = small, poorly fitted or top-dose-only effect; inactive = no such curve, though single readings can be large or run the other way;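 note: nearly all actives have a fitted effect of over 60% in size; nearly all hits also lower the signal before the agonist is added; a reference antagonist and vehicle were the controls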
Target sequence (P16066 whole entry, looked up): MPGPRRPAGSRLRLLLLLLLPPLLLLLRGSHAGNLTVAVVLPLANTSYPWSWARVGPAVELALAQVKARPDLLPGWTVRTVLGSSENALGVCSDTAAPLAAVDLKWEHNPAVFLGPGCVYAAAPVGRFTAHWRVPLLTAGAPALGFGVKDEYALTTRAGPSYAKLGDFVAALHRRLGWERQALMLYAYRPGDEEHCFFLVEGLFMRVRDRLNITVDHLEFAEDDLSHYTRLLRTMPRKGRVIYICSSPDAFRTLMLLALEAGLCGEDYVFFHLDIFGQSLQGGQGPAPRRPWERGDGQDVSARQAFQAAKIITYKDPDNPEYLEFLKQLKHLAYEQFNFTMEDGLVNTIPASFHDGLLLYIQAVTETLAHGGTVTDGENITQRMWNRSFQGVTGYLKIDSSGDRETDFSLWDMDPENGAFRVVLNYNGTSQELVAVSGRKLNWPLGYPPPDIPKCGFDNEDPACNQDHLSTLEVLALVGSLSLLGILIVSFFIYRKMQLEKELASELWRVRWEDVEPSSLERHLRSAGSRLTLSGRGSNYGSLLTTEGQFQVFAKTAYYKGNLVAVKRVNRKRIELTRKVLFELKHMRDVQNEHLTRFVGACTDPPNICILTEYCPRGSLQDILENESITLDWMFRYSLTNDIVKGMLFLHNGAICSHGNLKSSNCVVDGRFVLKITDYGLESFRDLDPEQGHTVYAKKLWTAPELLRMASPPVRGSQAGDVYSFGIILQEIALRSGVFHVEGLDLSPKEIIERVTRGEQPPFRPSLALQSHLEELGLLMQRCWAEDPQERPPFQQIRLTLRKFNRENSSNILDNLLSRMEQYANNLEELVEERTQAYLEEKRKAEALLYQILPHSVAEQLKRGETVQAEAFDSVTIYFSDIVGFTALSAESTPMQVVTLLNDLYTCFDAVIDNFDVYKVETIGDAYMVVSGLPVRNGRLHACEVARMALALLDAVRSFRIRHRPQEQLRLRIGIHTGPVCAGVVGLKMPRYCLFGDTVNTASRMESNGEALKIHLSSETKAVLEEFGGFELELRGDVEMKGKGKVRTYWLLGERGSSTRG
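Compound pre-incubated 30 min at room temperature on GloSensor-loaded HEK293 cells stably carrying hNpr1 and the pGS-40F cGMP biosensor. Stimulation uses hNppA at 0.1 nM final; luminescence is taken at baseline and 20 min post-agonist.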
* = called active by the depositor; ? = inconclusive; [ ] = remark or other dose. % is set by controls: 0 for no effect and ±100 for the full control effect; potency is the fitted concentration of half-maximal effect. Only part of the results is shown (hit frequency here may not be typical).

SMILES	NPR1 antag
CCCCNC(=O)N1CCC2(CC1)C(=O)N(CC(=O)NC(C)c1ccccc1)CN2c1ccccc1 (configuration not stated)	-0.7%
CC1=C(C(=O)NCC2Cn3cccc3C(=O)N2Cc2ccccc2)C2(CCCCC2)OC1=O (configuration not stated)	-4.2%
CCOc1cc(=O)n2c(c1C(=O)Nc1ccc(F)cc1F)CCCC2	-7.8%
Cc1ccc(CN2C(=O)NC3(CCCN(C(=O)c4ccc5c(c4)OCO5)C3)C2=O)cc1 (configuration not stated)	4.8%
O=C(NCc1ccc(N2CCOCC2)cc1)c1cc[nH]c1C1CCCNC1 (configuration not stated)	5.0%
Cc1ccc(CC(=O)NC2CCN(c3cc(-c4cccs4)[nH]n3)C2)cc1 (configuration not stated)	-22.9%
CCOC(=O)c1cn(C2CN(C(=O)Cc3ccccc3F)C2)nn1	3.4%
CC1=C[C@@H](CNCc2ccccc2O)[C@H](C(C)C)C[C@H]1Cc1nc2c(C)cccc2[nH]1	?
CC(C)CC(=O)NC1CCCc2c1[nH]c1c(Cl)cccc21 (configuration not stated)	-6.6%
CC(C)c1cccc(NC(=O)CCn2ccn3nc4c(c3c2=O)CCCC4)c1	-0.5%
CCc1ccc(NC(=O)Cn2c(C)ccc(NS(=O)(=O)c3ccc(C)cc3)c2=O)cc1	-2.1%
O=C(NCC1CCN(c2cc(-c3ccccc3)[nH]n2)CC1)c1ccc(=O)[nH]c1	-11.3%
CS(=O)(=O)c1ccc(CN2CCN(c3ncc(F)cn3)CC2)cc1	4.9%
CCC(CC)C(=O)N1CCCC(c2noc(COC)n2)C1 (configuration not stated)	-6.0%
COc1cc2c(cc1C(=O)N1CCNCC(O)C1)CCC2 (configuration not stated)	-5.8%
CO[C@@]1(C)C[C@@H](O)C12CCN(C(=O)CCn1c(C)cccc1=O)CC2	-1.0%
COc1cccc(-c2ccnc(-c3nnc(C)n3CCN3CCOCC3)c2)c1	-1.1%[70.6 µM]
O=C(CCC[C@H]1NC[C@@H]2C[C@H]1CN(Cc1ccccc1)C2)NCc1ccc(N2CCOCC2)cc1	-11.7%
COCCN1C(=O)[C@H]2CN(Cc3cc(OC)ccc3OC)C[C@H]2C1=O	1.2%
OC[C@@H]1CNC[C@H]1C1CCN(Cc2cccc(C(F)(F)F)c2)CC1	7.0%
Cc1cc(C(F)(F)F)nn1CC(=O)NC1CCc2nnc(C3CC3)n2CC1 (configuration not stated)	2.1%
CCNC(=O)c1cccc2c1CCN2C(=O)Nc1ccc(C)cc1	2.24µM*
CCn1c(CO)nnc1C1CC(NC(=O)CCn2c(=O)[nH]c3ccccc32)C1 (configuration not stated)	1.7%
COc1cc(-c2ccnc3nc(C4CCCCC4)nn23)cc(OC)c1OC	-3.7%
COCC(=O)NC[C@H]1O[C@H](Cc2cc(COC)on2)CC[C@@H]1O	1.8%[70.6 µM]

(more compounds)
SMILES	NPR1 antag
CC(C)CC(N)c1nnc2n1CCNCC2 (configuration not stated)	8.7%
Cc1nc(-c2ccc(F)cc2)n(CC(=O)NCc2ccc3c(c2)OCO3)c(=O)c1CCO	-5.0%
O=C(N1CCC(c2n[nH]c(=O)n2-c2ccccc2)CC1)C1(c2ccccc2)CC1	0.0%
CC(C)NC(=O)c1ccc(-c2nnc3ccc(NC(=O)C4CCC4)cn23)cc1	-1.3%
COc1cccc(CN2CCCC(NCc3cc(C)ccc3-n3cccn3)C2)c1 (configuration not stated)	-4.0%
COCCN1CCNc2nc(CNCc3cccc(Cl)c3)n(Cc3ccccc3)c2C1=O	-6.7%
C=CCN(Cc1ccccc1OC)C(=O)c1cnn(CCC)c1C	1.1%
Cc1ccc(CN2CCCN(S(C)(=O)=O)C(c3ccccc3)CC(=O)NCC2)s1 (configuration not stated)	-7.2%
O=C1N(C2CCCCC2)C[C@H]2CN(Cc3ccc(F)cc3)CCN12	-1.3%[70.6 µM]
Cc1cc(C[C@@H]2COC[C@@H]2NC(=O)c2ccc(-c3nnn(C)n3)cc2)on1	-1.1%
C[C@@H](NC(=O)c1cccs1)c1c(-c2ccc(F)cc2)noc1C(=O)O	1.8%[70.6 µM]
COc1ccccc1C(=O)NCc1nnc2cc(-c3nc(C)no3)ccn12	-6.5%
O[C@H]1CC[C@@H](Cc2cc(-c3ccc(F)cc3)on2)O[C@@H]1CNCc1cccnc1	-12.3%[70.6 µM]
CN1c2cccnc2CN(Cc2cccc(Cl)c2)CC[C@H]1CO	1.4%[70.6 µM]
O=C(N[C@H]1CCN2C(=O)N(c3ccc(F)c(Cl)c3)C(=O)[C@@H]2C1)c1cccs1	0.6%[70.6 µM]
O=C(c1ccc[nH]1)N1CCCC(n2cc(-c3nc(-c4ccccc4)no3)nn2)C1 (configuration not stated)	?
CCc1nc(C)c(C(=O)N[C@H]2[C@@H]3CCO[C@@H]3[C@@H]2C2CCCC2)o1	4.6%
NC(=O)[C@H](Cc1cccs1)NC(=O)[C@@]1(O)C[C@@H](O)[C@H](O)[C@@H](NC(=O)c2ccc(F)c(Cl)c2)C1	-1.3%
O=C(NCc1cccnc1)[C@@H]1C[C@@H](O)CN1C1CCN(C(=O)Cc2cccc(F)c2)CC1	6.2%
Cc1ccccc1CN1CCn2nnc(-c3nc(-c4ccsc4)no3)c2C1=O	1.0%
O=C(Nc1cccnc1)N1CCOC[C@H](Oc2ccccc2)C1	6.6%[70.6 µM]
Cc1cnc(-c2cccnc2)n1C1CCN(C(=O)c2ccncc2)CC1	-2.4%
O=C1NC(C(=O)NCC2CCCCC2)Cn2cccc21 (configuration not stated)	1.6%
COc1cc(CNC(=O)c2c(C)noc2-c2cc(OC)c(OC)c(OC)c2)cc(OC)c1	-3.4%
COc1ccc(CN2CCOc3nc(-c4ccc(O)c(F)c4)ncc3C2=O)cc1	0.4%[70.6 µM]

Next part:
SMILES	NPR1 antag
Cc1ccc2nc3n(c2c1)[C@@H](CNCc1ccc(C(=O)O)cc1)COC3	3.2%[70.6 µM]
COCCN1CCC(CN(Cc2ccncc2)C(=O)c2cnccn2)CC1	1.2%
COc1ccc(CNC(=O)N2CCC(C3CCN(S(C)(=O)=O)CC3)C2)cc1 (configuration not stated)	6.8%
Cc1cccc(NC(=O)N2CCc3c(c4ccccc4n3C)C2)c1C	-2.6%
Cc1nc(CNC(=O)CCN2Cc3ccccc3OC(c3ccccc3F)C2)cs1 (configuration not stated)	4.3%
CCCn1c(C)c(CC(=O)N(C)Cc2nnc(C)o2)c2c1CC(C)(C)CC2=O	0.6%
C[C@]1(CO)[C@H]2Cc3sc(NC(=O)c4ccco4)nc3[C@@H](CC(=O)NCc3cccnc3)[C@]2(C)CC[C@H]1O	-2.5%
CC(=O)N1CCC2(CC1)OC(=O)N(Cc1ccc(O)cc1)C2(C)c1ccccc1 (configuration not stated)	-1.9%[70.6 µM]
COCCOCC(=O)NCCc1noc(-c2ccccc2)n1	7.7%
CCCN(C)c1nccnc1OC1CCN(C(=O)CC(C)C)C1 (configuration not stated)	-11.3%
Cc1ccc(-c2noc([C@@H]3Cc4nc[nH]c4CN3C(=O)c3ccc(F)cc3)n2)cc1	-0.6%[70.6 µM]
CC(C(=O)NC1CC1)[C@@H]1CC[C@@]2(C)CC[C@H](NC(=O)C3CC3)[C@@H](C)[C@@H]2[C@H]1O (some centres not stated)	1.1%[70.6 µM]
COc1ccccc1-c1cc(NCc2cccnc2)c2onc(C)c2n1	4.2%[70.6 µM]
O=C(CN1C(=O)NC2(CCCCC2)C1=O)Nc1ccc(Br)cc1F	4.3%
CC[C@H]1CN(C(=O)N2CCOCC2)CC[C@H]1CC(=O)N1CCOCC1	-0.5%[70.6 µM]
Cc1oc(C(O)c2ccccc2)nc1C(=O)Nc1ccc2[nH]c(=O)oc2c1 (configuration not stated)	-1.3%[70.6 µM]
CCC1(N2CCN(S(=O)(=O)c3cccs3)CC2)CCN(S(C)(=O)=O)C1 (configuration not stated)	-0.9%
COc1ccc(-c2nc(C)nc3c2CN(C(=O)c2ccccc2)CC3)cc1	-1.4%
C[C@H](C(=O)NCCN1CCOCC1)C1CC[C@@]2(C)Cc3sc(CSc4ccccc4)nc3[C@@H](C)[C@@H]2[C@H]1O (some centres not stated)	10µM*
O=C(C1CN(c2ccccc2)C(=O)N1)N1CCN(Cc2ccccc2)CC1 (configuration not stated)	-4.4%
CCn1cc(CN2CCCC(CNC(=O)c3cccc(OC)c3OC)C2)cn1 (configuration not stated)	-2.2%
CCn1cc(S(=O)(=O)N2CCC3(CCCN(CC4CC4)C3=O)C2)cn1 (configuration not stated)	7.8%
COc1ccc(C2Cn3nnc(-c4noc(C5CC5)n4)c3CO2)cc1 (configuration not stated)	-13.5%
O=C1NCCOCCN(S(=O)(=O)c2ccccc2)[C@@H]2CCCC[C@H]12	5.7%
COc1cc2c(cc1OC)C(C[C@H]1CN(C(=O)c3cccn3C)CC[C@H]1CC(=O)O)=NCC2	-5.2%

With a hit mark in NPR1 antag, among the entries above:
SMILES	NPR1 antag
CCNC(=O)c1cccc2c1CCN2C(=O)Nc1ccc(C)cc1	2.24µM*
C[C@H](C(=O)NCCN1CCOCC1)C1CC[C@@]2(C)Cc3sc(CSc4ccccc4)nc3[C@@H](C)[C@@H]2[C@H]1O (some centres not stated)	10µM*

Arranged by the number under NPR1 antag (ascending): 3 of the compounds above
| smiles | NPR1 antag |
| --- | --- |
| O=C(C1CN(c2ccccc2)C(=O)N1)N1CCN(Cc2ccccc2)CC1 (configuration not stated) | -4.4% |
| CCCn1c(C)c(CC(=O)N(C)Cc2nnc(C)o2)c2c1CC(C)(C)CC2=O | 0.6% |
| COc1ccc(CNC(=O)N2CCC(C3CCN(S(C)(=O)=O)CC3)C2)cc1 (configuration not stated) | 6.8% |

The results go on.
SMILES	NPR1 antag
CNC(=O)N1CCC(C2CCN(C(=O)CCC3CCCC3)C2)CC1 (configuration not stated)	2.8%
COCCN1C(=O)CS(=O)C12CCN(C(=O)NC1CCCC1)CC2 (configuration not stated)	2.8%
CCCc1noc(-c2cccn3c(CNC(=O)c4ccccc4OCC)nnc23)n1	-16.2%
Cc1cccc(C(=O)N2CCN(c3cc(C(F)(F)F)nc(C)n3)CC2)c1	-0.7%
CCc1nc2c(c(-c3ccc(Cl)cc3)n1)CN(Cc1ccc(OC(F)(F)F)cc1)CC2	-3.7%
Cc1cccc(C(=O)N2CCCCCCNC(=O)[C@@H]3C[C@@H](c4nc(C(C)C)no4)C[C@@H]32)c1	-2.0%
CCn1nc(C(=O)N2CCCC3(CN(C)C(=O)O3)C2)cc1C (configuration not stated)	-0.7%
Cc1ccc(S(=O)(=O)NC[C@H]2OC[C@@H](N(C)C)[C@@H]2O)cc1	4.3%[70.6 µM]
Cc1nonc1CN(C)C(=O)CC(c1ccccc1)c1ccc2c(c1)OCO2 (configuration not stated)	-22.7%
Cc1ccccc1CNC(=O)CCn1ccn2nc3c(c2c1=O)CCCC3	0.6%
Cc1ccc(-c2cn3c(n2)N(C(=O)c2cnn4cccnc24)CCC3)cc1	-2.0%
COc1ccc(CN2CCC(O)(c3csc(CN4CCc5ccccc5C4)n3)CC2)cc1	-24.0%
CCCNC(=O)C1COC2(CCN(C(=O)c3ccccc3Cl)CC2)N1C(=O)c1cccc(F)c1 (configuration not stated)	0.4%
CCc1nc2c(c(-c3ccc(Cl)cc3)n1)CCN(CC1CCCCC1)CC2	1.2%
O=C(NC1CC1)[C@@H]1CN(Cc2c(F)cccc2Cl)C[C@H]1CO	-11.7%
Cc1noc(C)c1S(=O)(=O)N(C)C1CCOc2ccccc21 (configuration not stated)	0.0%[70.6 µM]
CCCNC(=O)N1CCc2cc(OC)c(OC)cc2C1CNC(=O)c1ccccc1C (configuration not stated)	2.1%
Cc1ccc(NC(=O)N2CCC(CCNC(=O)CCCc3ccccc3)CC2)cc1	-28.9%
CC(C)NC(=O)N(C1CC1)C1CCOC2(CCN(C(=O)Cc3cccc(F)c3)CC2)C1 (configuration not stated)	-1.0%
CC(C)CNc1ccc2c(n1)C(C)(C(=O)NCc1cccnc1)CN(Cc1ccccc1)C2 (configuration not stated)	5.8%
C[C@@H](NC(=O)C1CC1)c1onc(-c2ccc(Cl)cc2)c1C(=O)O	1.5%[70.6 µM]
COc1ccc(-c2cc3c(ccn3C(C)C)c(C(=O)NCc3c(C)cc(C)[nH]c3=O)n2)cc1	-4.6%
CN(C)C(=O)N1CCCC(c2nc(-c3ccc4nc[nH]c4c3)no2)C1 (configuration not stated)	-0.3%
COc1ccc(C)cc1NC(=O)CN1C(=O)NC(c2ccc(C)cc2)C2=C1COC2=O (configuration not stated)	-2.6%
Cc1ccc(-n2c(C3CCN(C(=O)C4(c5ccccc5)CC4)CC3)n[nH]c2=O)cc1	10.0%
CC(CCc1ccccc1)NC(=O)Cn1cccc1-c1nc(-c2ccc(F)cc2)no1 (configuration not stated)	0.6%
Cn1cc(-c2ccccc2)cc1C(=O)NCc1ccc(N2CCOCC2)cc1	-11.1%
CCOc1ccc(Cl)cc1CN(C)C(=O)c1cccc(-n2cnnc2)c1	0.6%
COc1ccc(-c2cc(N3CCN(C(=O)c4ccc(F)c(F)c4)CC3)n[nH]2)cc1	0.0%

Six records picked at random from the list so far, as already listed:
SMILES	NPR1 antag
O=C1N(C2CCCCC2)C[C@H]2CN(Cc3ccc(F)cc3)CCN12	-1.3%[70.6 µM]
O=C1NC(C(=O)NCC2CCCCC2)Cn2cccc21 (configuration not stated)	1.6%
CCCCNC(=O)N1CCC2(CC1)C(=O)N(CC(=O)NC(C)c1ccccc1)CN2c1ccccc1 (configuration not stated)	-0.7%
COc1cccc(-c2ccnc(-c3nnc(C)n3CCN3CCOCC3)c2)c1	-1.1%[70.6 µM]
CC1=C(C(=O)NCC2Cn3cccc3C(=O)N2Cc2ccccc2)C2(CCCCC2)OC1=O (configuration not stated)	-4.2%
Cc1ccc(CN2C(=O)NC3(CCCN(C(=O)c4ccc5c(c4)OCO5)C3)C2=O)cc1 (configuration not stated)	4.8%
